# Screening results deposited in PubChem by several laboratories.
# Mtb betalactam: beta-lactam sensitization of Mtb H37Rv; M. tuberculosis H37Rv growth with meropenem, percent inhibition; hits of this screen are not shown here; inhibition, % at 25 µM; actives 0.27% (n = 330,000);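 active means about 74% or more and at least 40 points above the plate without the antibiotic, then above 30% in a dose series; inconclusive means first-round hits that could not be retested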;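 further: growth measured after seven days incubation then overnight dye step; 0% = bacteria only wells and 100% = bacteria with antibiotic; twin plates without the antibiotic show which effects depend on it; some results filed as inactive read as strong as hits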
# Mtb growth: M. tuberculosis H37Rv growth inhibitors, H37Rv strain (AID 1626); M. tuberculosis H37Rv growth inhibition; higher % means a stronger effect; actives 0.95% (n = 220,000); one-dose inhibition, % at 10 µM; IC50 in µM for titrated hits;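 active means confirmed in a dose series; inconclusive means inhibition above 80% but not taken into the dose series; inactive means below 80% or under 30% at every dose of the series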;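 further: bacteria incubated seven days before Alamar blue readout; 0% = bacteria only wells and 100% = bacteria with antibiotic wells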
# RecA intein inh: blocks M. tuberculosis RecA intein splicing; inhibition, %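 (about 9 µM by stock and volumes)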; actives 0.75% (n = 290,000); AID 2221; cell-free RecA intein splicing, fluorescence; in the data active means inhibition above about 30%; inconclusive means no clear call, values can overlap the other calls;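 further: 0% = vehicle wells and 100% = reference inhibitor control wells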
# Target sequence (P9WHJ3 whole entry, looked up): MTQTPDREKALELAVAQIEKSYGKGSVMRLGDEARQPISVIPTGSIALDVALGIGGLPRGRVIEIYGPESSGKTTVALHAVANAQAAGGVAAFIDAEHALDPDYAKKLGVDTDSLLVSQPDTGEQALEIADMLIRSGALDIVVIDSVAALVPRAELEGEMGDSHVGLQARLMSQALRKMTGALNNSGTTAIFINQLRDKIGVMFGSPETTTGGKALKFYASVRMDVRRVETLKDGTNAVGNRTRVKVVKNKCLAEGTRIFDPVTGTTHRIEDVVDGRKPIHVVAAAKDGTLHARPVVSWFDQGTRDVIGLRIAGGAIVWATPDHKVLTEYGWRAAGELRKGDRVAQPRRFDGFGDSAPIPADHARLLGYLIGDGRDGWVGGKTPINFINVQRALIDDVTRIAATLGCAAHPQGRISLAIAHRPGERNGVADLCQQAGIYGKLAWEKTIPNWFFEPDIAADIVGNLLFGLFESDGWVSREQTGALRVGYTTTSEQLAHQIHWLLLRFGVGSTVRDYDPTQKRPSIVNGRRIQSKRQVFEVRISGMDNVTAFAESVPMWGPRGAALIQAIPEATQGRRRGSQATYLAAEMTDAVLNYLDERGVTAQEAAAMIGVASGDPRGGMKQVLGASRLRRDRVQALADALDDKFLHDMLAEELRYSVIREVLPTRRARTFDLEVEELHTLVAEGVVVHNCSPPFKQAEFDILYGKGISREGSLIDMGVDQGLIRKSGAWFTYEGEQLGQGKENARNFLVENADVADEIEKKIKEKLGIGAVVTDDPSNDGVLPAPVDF
# YopH inh: YopH (Yersinia) phosphatase inhibition. fluorescence Ex485/Em525. inhibition, %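 (about 10 µM by stock and volumes)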. actives 0.16% (n = 140,000). AID 898;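 active means inhibition of 50% or more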;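 further: controls were vehicle for no effect and minimum signal wells for full effect; inactives centre near -20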
# Arbovirus inh: blocks arbovirus infection; arbovirus infection cell-based antiviral screen; inhibition, % at 10 µM; actives 0.37% (n = 200,000);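 active means inhibition from about 30%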;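 further: bluetongue infection of BSR cells; cell survival read as ATP light after 72 h; 0% = infected wells without compound and 100% = uninfected wells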
# Arbovirus inh repeat: further read-out of Arbovirus inh, marked with its call; inhibition, %; measured here: 10K subset replicate screen; many hits read low in the repeat;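 first of two repeat runs on a subset; 0% = infected and 100% = uninfected wells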
# An asterisk follows results filed as active; ? = inconclusive; / = no result given.
SMILES,Mtb betalactam,Mtb growth,RecA intein inh,YopH inh,Arbovirus inh,others
O=C1CC(=O)N(CCc2ccccc2)C(=O)N1CCc1ccccc1,6,-3%,5.9,-34,24,
NS(=O)(=O)c1ccc(CCNCc2cccs2)cc1,-4,2%,-2.8,/,6,
Cc1ccc(C(=O)/C=C/c2cc(C#N)n(C)c2C)cc1,3,/,2.2,/,/,
CCc1nn(CCCC(=O)N2CCc3ccccc3C2)c(=O)c2cc3occc3n12,-9,3%,4.4,-11,-10,
O=C(NCCCN1CCOCC1)C1COc2ccccc2O1 (stereo not drawn),6,-14%,-1.7,-13,3,
CCOc1ccc(S(=O)(=O)N2CCC(C(=O)NCc3ccncc3)CC2)cc1Cl,0,/,-0.2,/,/,
CC(C)(C)n1nnnc1CN1CCC(NC(=O)NC2CCCCC2)CC1,-1,-20%,4.2,-20,7,
NNC(=O)c1ccc(COc2cccc3ccccc23)o1,-10,-3%,10,/,/,
O=C(c1ccc(CSc2ccc(Cl)cc2)cc1)N1CCCC1,-3,11%,2.5,/,6,
CC(C)CCNC(=O)CCc1nnc(Cc2c[nH]c3ccccc23)o1,-2,4%,-0.8,/,-1,
COc1ccc(CN2CCOCCOCCOCCOCCOCC2)cc1,-3,-12%,/,/,/,
Cc1ccc(NNC(N)=S)cc1Cl,100,/,-0.6,/,/,
Cc1ccc(O)c(NC(=O)C2CC(c3ccc(F)cc3)=NO2)c1 (stereo not drawn),47,76%,-4.6,-27,10,
OC(CNC1CCCc2ccccc21)COc1c(Cl)cccc1Cl (stereo not drawn),3,12%,0.7,-23,17,
CC(=O)Nc1cccc(NC(=O)CSc2nc(=O)n(CCN3CCOCC3)c3c2CCCC3)c1,1,/,0.1,/,/,
CC(C)[C@@H]1C=C(C(=O)O)O[C@H](OCCCCO)C1,-3,-12%,-0.8,/,/,
CC/C(O)=C1\C(=O)CC(c2ccccc2)CC1=NCCC(=O)O (stereo not drawn),1,-7%,-2.4,-13,-6,
CCOc1cc(NC(=O)Nc2ccc(F)cc2)c(OCC)cc1NC(=O)CC,1,/,-2.0,/,/,
Cc1ccc(SC(C)C(=O)Nc2ncn[nH]2)cc1 (stereo not drawn),-1,-1%,-1.1,9,2,
O=C(CN1CCN(c2ncccn2)CC1)NCc1ccc2c(c1)OCO2,-16,0%,-0.3,/,-2,
CC(C)CSc1nnc2[nH]c(=O)cc(N)n12,-5,-11%,-1.0,-33,-2,
Cc1ccccc1Nc1ccc([N+](=O)[O-])cn1,-6,/,3.3,/,/,
O=C(O)/C=C/c1cn(Cc2ccccc2)nc1-c1ccccc1,26,-3%,0.8,-1,4,
O=C(Nc1ccc(Br)cn1)c1ccc2ccccc2c1,4,/,1.2,/,/,
O=C(CSc1nnc(COc2ccccc2)n1-c1ccccc1)c1cccs1,23,2%,7.4,-2,0,
Cc1ccc2[nH]c3c(c2c1)CN(C(=O)CN1CCN(C(=O)c2ccco2)CC1)CC3,-5,3%,-69,/,/,
O=C(N1CCOCC1)N1CCOCC1,-16,0%,0.2,-28,5,
COC(=O)C1=C(C)N(CC(C)C)C(=O)C1,3,1%,1.0,2,4,
c1ccc2c(c1)OCC(c1nnc3n1-c1ccccc1SC3)O2 (stereo not drawn),27,-13%,3.1,-7,1,
O=C(O)/C(=C\c1ccc(-c2ccccc2[N+](=O)[O-])o1)c1ccccc1,-5,/,6.8,/,/,
CN(C)/C=C/C(=O)c1ccc(Cl)c([N+](=O)[O-])c1,-5,-6%,4.3,/,6,
COCCn1c(SCC(=O)N2CCCC2)nc2c([nH]c3ccccc32)c1=O,-1,/,-2.7,/,/,
Cc1cc(C(=O)COc2ccccc2[N+](=O)[O-])c(C)n1C1CC1,6,-1%,0.2,/,-5,
CCOC(=O)/C(=N\Nc1ccccc1[N+](=O)[O-])c1csc(N)n1,2,6%,-0.3,/,-2,
CN(C)S(=O)(=O)c1ccc(N2CCCC2)c(C(=O)Nc2ccccc2Br)c1,3,/,-1.8,/,/,
Cn1c(=O)c2c(nc(NCCc3ccccc3)n2Cc2ccccc2)n(C)c1=O,-4,2%,-0.4,-29,12,
CCOC(=O)c1[nH]c2ccc(C)cc2c1N=CN(CC)CC,-2,-1%,-1.6,-16,5,
CCOC(=O)C[C@H]1c2cc(C(F)(F)F)ccc2S(=O)(=O)N1Cc1ccccc1,-2,-6%,-3.1,/,/,
C=CCc1ccc(OCc2ccc(C(=O)OC)o2)c(OC)c1,2,-15%,-1.7,-16,7,
COc1ccc([N+](=O)[O-])cc1NC(=O)COC(=O)Cc1cc(OC)c(OC)c(OC)c1,-2,-4%,1.2,-40,6,

# Retrieved by compound from the entries so far (3):
SMILES,Mtb betalactam,Mtb growth,RecA intein inh,YopH inh,Arbovirus inh,others
CC(C)CSc1nnc2[nH]c(=O)cc(N)n12,-5,-11%,-1.0,-33,-2,
c1ccc2c(c1)OCC(c1nnc3n1-c1ccccc1SC3)O2 (stereo not drawn),27,-13%,3.1,-7,1,
C=CCc1ccc(OCc2ccc(C(=O)OC)o2)c(OC)c1,2,-15%,-1.7,-16,7,

# Additional results.
SMILES,Mtb betalactam,Mtb growth,RecA intein inh,YopH inh,Arbovirus inh,others
CCCCCOC(=O)c1ccc(N2C(=O)C3C4C=CC(C4)C3C2=O)cc1 (stereo not drawn),11,45%,0.6,-5,7,
CC(=O)c1sc(N/N=C\c2c(O)ccc3ccccc23)nc1C,11,/,-1.3,/,/,
COc1cnc(-c2cccc(C(F)(F)F)c2)nc1OC,4,0%,-1.9,/,1,
CCCC(=O)Nc1cc(C)c(NC(=O)c2ccccn2)cn1,-7,-4%,4.9,-14,10,
CC(NC(=O)Cc1cccs1)C(c1cccs1)N1CCN(c2ccccc2F)CC1 (stereo not drawn),/,5%,0.4,-34,13,
Cc1cc(NS(=O)(=O)c2ccccc2)c(C)c(Cl)c1O,-13,-4%,-11,/,-14,Arbovirus inh repeat=-23
C=CCNC(=S)NNC(=O)c1cccn(Cc2cccc(Cl)c2)c1=O,5,-2%,-0.7,-4,-11,
CCNC(=O)COC(=O)/C=C/c1cccs1,-1,3%,-3.5,/,2,
COc1ccc(OCC(=O)Nc2nc3c(s2)CCCC3)cc1,99,/,7.7,/,/,
c1csc(-c2nnc(N3CCOCC3)c3ccccc23)c1,0,-4%,-1.1,/,0,
COc1ccc(C(=O)NNC(=O)c2ccccc2[N+](=O)[O-])cc1,2,2%,-2.1,-13,-1,
O=C(c1cccc(C(F)(F)F)c1)C1CCCN(C(=O)CCn2cnnn2)C1 (stereo not drawn),-8,-8%,-3.4,/,/,
COC(=O)C1=C(C)N(CCCC(=O)O)C(=O)NC1c1cccc2ccccc12 (stereo not drawn),-4,-8%,-4.3,/,/,
Cc1oc2ccc(OC(=O)N(C)C)cc2c1C(=O)OC(C)C,15,-7%,-3.0,37,32*,
Cc1cc(Nc2nc3ccccc3nc2Cl)n(-c2ccccc2)n1,?,2%,-2.7,-13,-14,
CC(C)CN1CCNC(=O)C1CC(=O)NCCc1cnn(-c2ccccc2)c1 (stereo not drawn),-2,4%,-1.8,/,0,
Cc1ccc(-n2c(C)cc(C(=O)NS(=O)(=O)c3ccc(C)cc3)c2C)cc1,-6,1%,/,-28,-3,
COc1ccc(-c2[nH]n(-c3ccc([N+](=O)[O-])cc3)c(=O)c2C=NCc2ccc(F)cc2)cc1,3,-3%,-1.4,-8,-18,
CC(=O)c1ccc(-n2c(CCC(=O)O)ccc2-c2cccs2)cc1,-1,2%,0.2,-4,-5,
Cc1cc(C)nc(N2CCCC(C(=O)NCCc3cccc(F)c3)C2)n1 (stereo not drawn),-2,-9%,0.6,-42,-3,
O=C(NCC1CCCO1)C(=O)N/N=C/c1c(F)cccc1Cl (stereo not drawn),2,/,2.1,/,/,
COc1ccc(-c2cc(C3CCN(Cc4cccc(C(F)(F)F)c4)CC3)[nH]n2)cc1,100,71%,7.4,/,-31,
CCOC(=O)CNC(=O)N1c2ccccc2Sc2ccccc21,100,21%,0.2,/,3,
CCOP(=S)(OCC)c1ccc(N(C)C)cc1,0,1%,2.4,-14,6,
CC(C)(C)NC(=O)CN(Cc1cccnc1)C(=O)c1csnn1,-3,-11%,-0.2,-39,-1,
O=C(NCc1nc(-c2ccc(C(F)(F)F)cc2)no1)Nc1cc(Cl)cc(Cl)c1,22,5.7µM*,-1.0,/,/,
OC(CNc1nc2ccccc2s1)c1ccccc1 (stereo not drawn),4,-2%,0.2,-41,9,
Cc1cc(=O)[nH]c(NN=C2C3CC4CC(C3)CC2C4)n1,-8,-8%,-4.3,/,/,
COc1ccc(CC2(CO)CCN(Cc3cc4ccccc4o3)CC2)cc1,2,6%,0.8,/,-4,
Cn1cc(Cl)c(C(=O)Nc2cnn(Cc3ccc(F)cc3)c2)n1,-2,-6%,4.0,-28,-28,
CCn1c(NCc2cc(Br)ccc2NS(=O)(=O)c2ccc(C)cc2)nc2ccccc21,-1,12%,11,-35,-9,
CCOC(=O)COc1ccccc1-c1ccno1,3,-7%,1.0,-18,-1,
O=[N+]([O-])c1cc(-c2nnc(Nc3ccc(O)cc3)c3ccccc23)ccc1N1CCOCC1,2,15%,32*,-24,-9,
O=C(Nc1ccccc1C(=O)N/N=C/c1ccco1)c1ccc(F)cc1,-3,8%,-0.5,-8,-5,
COCC(=O)/C=C1\Sc2ccccc2N1C,1,-2%,-2.8,-24,3,
CCN(CC(=O)Nc1ccc(OC)cc1)C(=O)c1cc([N+](=O)[O-])ccc1N1CCOCC1,-11,/,-0.4,/,/,
CNCC(O)c1cccc(OC(=O)c2ccccc2C)c1 (stereo not drawn),20,/,-2.1,-23,-1,
NC(=O)C1CCN(c2cc(N3CCOCC3)ccc2[N+](=O)[O-])CC1,2,9%,3.7,/,2,
COc1ccc(C(O)c2ncc(C(F)(F)F)cc2Cl)cc1 (stereo not drawn),2,/,-2.1,/,/,
Cc1ccccc1C(=O)NC1CCN(CC(=O)N2CCCCC2C)CC1 (stereo not drawn),-3,/,3.2,/,/,
COc1ccc(Cc2nc3ccc(C(=O)N4CCCC4)cc3o2)cc1,-4,/,1.0,/,/,
COc1ccc(NC(=O)CSC(C)c2nc3ccccc3c(=O)[nH]2)cc1 (stereo not drawn),-7,/,-0.7,/,/,
O=c1cc(NC2CCCCCC2)[nH]c(=O)[nH]1,15,3%,5.8,13,5,
Cc1ccc(S(=O)(=O)Nc2ccc3c(c2)nc(CCN2CCN(c4ccccn4)CC2)n3C)cc1,14,/,1.3,/,/,
CCCCOc1ccc(C(=O)NCC(=O)NCC(=O)OCC)cc1,?,5%,2.0,-47,3,
COC(=O)c1sccc1NC(=O)c1csc(C)c1,79,1%,1.5,-38,2,
COC(=O)C1=C(C)NC2=C(C(=O)CC(C)(C)C2)C1c1cn(Cc2ccc(Br)cc2)nc1-c1ccccc1 (stereo not drawn),2,8%,-19,-39,-23,

# Compounds from the list above that have an NH in an aromatic ring:
SMILES,Mtb betalactam,Mtb growth,RecA intein inh,YopH inh,Arbovirus inh,others
CC(C)CCNC(=O)CCc1nnc(Cc2c[nH]c3ccccc23)o1,-2,4%,-0.8,/,-1,
Cc1ccc(SC(C)C(=O)Nc2ncn[nH]2)cc1 (stereo not drawn),-1,-1%,-1.1,9,2,
CC(C)CSc1nnc2[nH]c(=O)cc(N)n12,-5,-11%,-1.0,-33,-2,
Cc1ccc2[nH]c3c(c2c1)CN(C(=O)CN1CCN(C(=O)c2ccco2)CC1)CC3,-5,3%,-69,/,/,
COCCn1c(SCC(=O)N2CCCC2)nc2c([nH]c3ccccc32)c1=O,-1,/,-2.7,/,/,
CCOC(=O)c1[nH]c2ccc(C)cc2c1N=CN(CC)CC,-2,-1%,-1.6,-16,5,
COc1ccc(-c2[nH]n(-c3ccc([N+](=O)[O-])cc3)c(=O)c2C=NCc2ccc(F)cc2)cc1,3,-3%,-1.4,-8,-18,
COc1ccc(-c2cc(C3CCN(Cc4cccc(C(F)(F)F)c4)CC3)[nH]n2)cc1,100,71%,7.4,/,-31,
Cc1cc(=O)[nH]c(NN=C2C3CC4CC(C3)CC2C4)n1,-8,-8%,-4.3,/,/,
COc1ccc(NC(=O)CSC(C)c2nc3ccccc3c(=O)[nH]2)cc1 (stereo not drawn),-7,/,-0.7,/,/,
O=c1cc(NC2CCCCCC2)[nH]c(=O)[nH]1,15,3%,5.8,13,5,

# Not all compounds are listed; rates above refer to the full screens.
